B2AR ag: agonists of human beta-2 adrenergic receptor inducing internalization; P07550; response, % (concentration not given with the values); Am2.2-beta2AR cells, FAP receptor internalization, flow cytometry; reference of the scale not given here; 0.43% of 340,000 active;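 active = response above a set limit, near 3 SD of response in nonfluorescent compounds, cut at about 42% in these data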;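 note: stock transfer was 100 nL into about 11 µL; a reference agonist was the positive control; negative values mostly stem from fluorescent compounds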
UCH37 DUB inh: human UCH37 deubiquitinating enzyme inhibition; Q9Y5K5; inhibition, % (concentration not given with the values); 0.33% of 330,000 active; AID 588478; purified proteasome/UCH37, Ub-AMC cleavage fluorescence;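 active = mean of two replicates above 20%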;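 note: 0% = compound-free wells with enzyme and 100% = wells lacking proteasome; stock transfer was 100 nL into about 20 µL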
Target sequence (Q9Y5K5 whole entry, looked up): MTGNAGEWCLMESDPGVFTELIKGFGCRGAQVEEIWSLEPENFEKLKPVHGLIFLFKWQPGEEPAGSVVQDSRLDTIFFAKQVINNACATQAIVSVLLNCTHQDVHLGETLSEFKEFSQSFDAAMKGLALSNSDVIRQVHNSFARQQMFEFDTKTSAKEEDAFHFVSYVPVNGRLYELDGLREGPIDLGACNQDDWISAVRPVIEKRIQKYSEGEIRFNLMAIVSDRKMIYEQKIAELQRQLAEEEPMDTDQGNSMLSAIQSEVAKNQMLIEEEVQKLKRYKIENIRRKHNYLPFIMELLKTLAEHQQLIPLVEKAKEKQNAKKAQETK
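Reagent: Ub-AMC substrate; assay system: Proteasome-associated human UCH37 deubiquitinase; controls: no-proteasome and no-compound wells; read-out: % inhibition of Ub-AMC cleavage fluorescence; timing: 30 min preincubation with enzyme, 25 min cleavage at room temperature; signal: AMC fluorescence from Ub-AMC cleavage, excitation 355 nm, emission 460 nm; buffer or medium: Tris-HCl pH 7.4 plus ovalbumin, ATP-MgCl2, DTT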
ALR inh: blocks human ALR sulfhydryl oxidase activity; P55789; purified ALR, DTT oxidation, H2O2 HRP-luminol luminescence; inhibition, % (test concentration not listed); 3.8% of 290,000 active;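 active = mean and each replicate at 75% or more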;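 note: stock transfer was 7.5 nL into about 7.5 µL; 0% = neutral wells and 100% = wells with inactivated enzyme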
Target sequence (P55789 whole entry, looked up): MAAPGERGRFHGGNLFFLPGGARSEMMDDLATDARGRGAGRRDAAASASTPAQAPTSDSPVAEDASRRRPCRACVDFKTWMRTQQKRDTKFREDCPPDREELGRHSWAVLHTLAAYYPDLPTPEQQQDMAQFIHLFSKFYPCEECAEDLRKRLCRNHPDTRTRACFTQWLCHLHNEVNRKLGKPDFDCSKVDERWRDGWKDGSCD
Ecoli growth: E. coli growth inhibition; 0.21% of 330,000 active; OD600 absorbance (concentration not given with the values); AID 1053175; Escherichia coli growth, OD600, 23 h; stronger effect = lower value;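 active = OD600 absorbance below the run mean of sample wells minus 3.6 SD, in any replicate, cut at about 0.56 in these data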;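 note: stock transfer was 300 nL into about 60 µL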
LANA-H2B inh: blocks KSHV LANA binding to histone H2A/H2B; cell-free LANA-H2A/H2B peptide, fluorescence polarization; inhibition, % (no concentration beside the values); 0.6% of 320,000 active; in the data active = inhibition mostly above about 10%, no sharp cut-off; inactive = mostly below about 6.7%;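 note: stock transfer was 7.5 nL into about 10 µL; 0% = median of vehicle wells and 100% = median of positive control wells; one replicate is shown; the record names a cut of 25% in any replicate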
FGF22 binding: FGF22 (human) thermal shift binding; recombinant FGF22 thermal shift, SYPRO orange fluorescence; percent of sucrose octasulfate shift, DMSO zero; 1.5% of 340,000 active; calls only at 9.99 µM; Q9HCT0;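 active = melting point raised past a set limit in the mean and every replicate; three in four hits are not shown here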
HNF4A DNA FP: change in binding of human HNF4 alpha to DNA. HNF4a-FITC DNA binding, fluorescence polarization, 1 h. P41235. AID 1224865. 0.3% of 360,000 active. activity change, % at 10 µM; in the data active = activity change above about 30%, passing the limit was not always enough;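 note: controls were the assay level and a saturating level of protein; the project sought stronger binding though the title names inhibitors; some compounds called inactive have numbers as strong as hits; positive values seem to mean higher polarization but the record does not say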
Target sequence (P41235 whole entry, looked up): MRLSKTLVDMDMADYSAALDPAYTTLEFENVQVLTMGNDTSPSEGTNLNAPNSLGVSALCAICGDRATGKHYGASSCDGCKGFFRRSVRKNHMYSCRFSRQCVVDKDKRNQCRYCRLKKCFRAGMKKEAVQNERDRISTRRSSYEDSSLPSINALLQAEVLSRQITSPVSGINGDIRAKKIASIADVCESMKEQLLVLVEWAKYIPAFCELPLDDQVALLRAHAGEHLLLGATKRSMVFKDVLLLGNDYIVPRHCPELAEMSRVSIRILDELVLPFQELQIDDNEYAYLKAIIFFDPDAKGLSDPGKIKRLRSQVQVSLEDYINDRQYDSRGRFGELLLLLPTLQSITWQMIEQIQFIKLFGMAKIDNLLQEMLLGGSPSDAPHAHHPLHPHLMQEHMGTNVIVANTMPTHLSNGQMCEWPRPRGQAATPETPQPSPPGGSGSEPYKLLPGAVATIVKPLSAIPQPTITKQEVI
An asterisk follows results filed as active; i = inactive; nt = not tested or not shown.

1: CC1(C)Nc2ccccc2N(CC(=O)N2CCCCC2)C1=O
2: Cc1cc(C)n(-c2cc(O)c(-n3nc(C)cc3C)cc2O)n1
3: CSc1nc(N)cc(=O)[nH]1
4: Cc1ccc(-n2nc(C(N)=O)nc2-c2ccccc2)cc1
5: COCC(C)NC(=O)c1cc(OC)cc(OC)c1 (centres undefined)
6: CCN1C(=O)/C(=C\N2CCN(C(=O)c3ccco3)CC2)SC1=S
7: CCn1c(Nc2ccccc2Cl)nc2ccccc21
8: CCOC(=O)Cc1csc(N(C)C)n1
entry no.	1	2	3	4	5	6	7	8
B2AR ag	2.9	3.2	0.6	5.0	-5.4	-1.5	-13.3	1.2
UCH37 DUB inh	0.5	-3.6	5.8	8.4	-0.9	3.6	2.6	1.7
ALR inh	98.4*	89.1*	nt	49.5	-3.1	-1.2	-2.7	0.3
Ecoli growth	0.722	0.674	0.688	0.695	0.688	0.66	0.703	0.638
LANA-H2B inh	-1.7	-0.4	1.0	6.2	3.0	-4.9	7.2	5.1
FGF22 binding	nt	nt	i	i	i	i	nt	i
HNF4A DNA FP	3.3	2.7	-3.2	-2.2	-6.5	-5.8	-0.4	-12.2

9: CCCCN1C(N)=NC[C@H]1Cc1ccc(O)cc1
10: CN(C)CCC(=O)NCC1OCCc2ccccc21 (centres undefined)
11: COc1ccc(N2CCN(C(=O)CN(c3cccc(Br)c3)S(C)(=O)=O)CC2)cc1
12: CC1(C)Cc2cccc(OCC(=O)OCC(=O)Nc3ccccc3)c2O1
13: Cc1cccc(-n2ccnc2SCC(=O)Nc2nnc(C)s2)c1
14: O=C(Nc1ccc2c(c1)OCO2)c1cccc(F)c1
15: CC(C)(C)CCN1CCC(CN2CCNC(=O)C2=O)CC1
16: COCCCNC(=O)CC(NS(=O)(=O)c1ccc(F)cc1)c1ccc(OC)cc1 (centres undefined)
entry no.	9	10	11	12	13	14	15	16
B2AR ag	-0.5	0.9	5.0	-1.6	-6.5	5.3	-6.8	-8.0
UCH37 DUB inh	-0.9	1.3	-0.3	2.4	1.7	5.1	nt	1.1
ALR inh	33.7	-26.7	61.4	nt	nt	-3.7	nt	3.6
Ecoli growth	nt	0.674	0.712	0.682	0.776	0.652	nt	0.692
LANA-H2B inh	3.2	-6.1	-0.1	1.1	-0.8	2.6	nt	-4.6
FGF22 binding	i	nt	nt	i	i	nt	i	i
HNF4A DNA FP	1.3	-3.4	-1.1	3.0	0.1	2.5	1.3	-2.8

17: Cc1nn(CC(=O)N/N=C/c2ccc(F)cc2)c(C)c1[N+](=O)[O-]
18: O=c1c(-c2ccc([N+](=O)[O-])cc2)coc2c(O)c(O)ccc12
19: CCOc1ccc(CNC(=O)C2CCCN(S(C)(=O)=O)C2)cc1OC (centres undefined)
20: O=C(CCOc1ccc(F)cc1)Nc1nccs1
21: FC(F)(F)c1cc(CCN2C(=S)NC[C@@H]2Cc2ccccc2)cc(C(F)(F)F)c1
22: O=C(NNC(=S)Nc1ccc(F)cc1)C1[C@H]2CCCC[C@@H]12 (some centres undefined)
23: CCOC(=O)c1ccc(N2CCN(C(=O)c3ccccc3)CC2)c(NC(=O)c2ccco2)c1
24: O=C(O)CCCC(=O)NNc1ncnc2ccccc12
entry no.	17	18	19	20	21	22	23	24
B2AR ag	2.4	14.1	6.3	-2.4	4.5	4.7	-16.0	2.6
UCH37 DUB inh	nt	nt	4.4	-1.5	1.5	4.4	5.8	6.6
ALR inh	-0.2	9.5	-2.9	-6.3	-8.1	49.2	-2.3	11.3
Ecoli growth	nt	nt	0.648	0.682	nt	0.679	0.688	0.729
LANA-H2B inh	1.0	11.6	3.7	0.2	2.5	-3.2	2.0	0.4
FGF22 binding	i	i	nt	i	i	i	i	nt
HNF4A DNA FP	2.8	-9.5	-8.5	0.5	-2.4	0.8	3.0	-1.9

Quoted from above, entries 14–16
14: O=C(Nc1ccc2c(c1)OCO2)c1cccc(F)c1
15: CC(C)(C)CCN1CCC(CN2CCNC(=O)C2=O)CC1
16: COCCCNC(=O)CC(NS(=O)(=O)c1ccc(F)cc1)c1ccc(OC)cc1 (centres undefined)
entry no.	14	15	16
B2AR ag	5.3	-6.8	-8.0
UCH37 DUB inh	5.1	nt	1.1
ALR inh	-3.7	nt	3.6
Ecoli growth	0.652	nt	0.692
LANA-H2B inh	2.6	nt	-4.6
FGF22 binding	nt	i	i
HNF4A DNA FP	2.5	1.3	-2.8

Molecules from the list above that contain two or more sulfur atoms:
6: CCN1C(=O)/C(=C\N2CCN(C(=O)c3ccco3)CC2)SC1=S
13: Cc1cccc(-n2ccnc2SCC(=O)Nc2nnc(C)s2)c1
entry no.	6	13
B2AR ag	-1.5	-6.5
UCH37 DUB inh	3.6	1.7
ALR inh	-1.2	nt
Ecoli growth	0.66	0.776
LANA-H2B inh	-4.9	-0.8
FGF22 binding	i	i
HNF4A DNA FP	-5.8	0.1

More structures
25: Cc1ccsc1/C=N/N1CCN(Cc2ccccc2)CC1
26: Nc1ncnc2c1ncn2[C@@H]1O[C@H](CNC(=O)[C@@H](N)Cc2ccccc2)[C@@H](O)[C@H]1O
27: CCCC(=O)N1CCN(c2ccc([N+](=O)[O-])cc2Cl)CC1
28: O=C(CCS(=O)(=O)c1ccccc1Cl)NCCC1=CCCCC1
29: O=C(Oc1cccc(NC2=NS(=O)(=O)c3ccccc32)c1)c1ccncc1
30: Cc1cc(O)c(C(=O)c2ccccc2C(=O)O)cc1C
31: CCSc1ncc(Cl)c(C(=O)Nc2cc(C)ccc2C)n1
32: COc1cc(S(=O)(=O)N(C)Cc2ccc3c(c2)OCCO3)ccc1NC(C)=O
entry no.	25	26	27	28	29	30	31	32
B2AR ag	0.3	1.0	3.6	-3.7	3.3	5.0	-10.2	9.6
UCH37 DUB inh	nt	1.3	9.7	13.1	6.7	3.2	-0.4	1.8
ALR inh	29.7	nt	2.9	-3.9	7.9	1.7	-3.4	-1.8
Ecoli growth	nt	0.697	0.742	0.69	0.652	0.792	0.676	0.642
LANA-H2B inh	5.5	nt	1.2	0.5	-5.0	5.2	-0.3	7.9
FGF22 binding	i	i	nt	i	i	nt	i	i
HNF4A DNA FP	3.6	-0.4	1.0	1.0	5.0	0.8	-1.5	0.6

33: CCOCc1cnc(C)nc1NCC(=O)c1c(C)n(C)c2ccc(OC)cc12
34: COc1ccc(/C=N/N2CCN(C)CC2)cc1OC
35: CSc1ccccc1NC(=O)c1cc(S(=O)(=O)N(C)C)ccc1N1CCCC1
36: O=C(Cc1cccs1)N(CC1CCCO1)C1(C(=O)NC2CCCCC2)CCCCC1 (centres undefined)
37: Cc1ccc2oc(C(=O)NCCCN3CCOCC3)c(C)c2c1
38: O=C1CCCC2=C1C(c1ccc(O)c(O)c1)Nc1ccc3ccccc3c12 (centres undefined)
39: COc1ccccc1NS(=O)(=O)c1cccc(NC(=O)Nc2cccc(Cl)c2)c1
40: COc1cccc(C2C(C#N)=C(N)OC(C(C)(C)C)=C2C#N)c1 (centres undefined)
entry no.	33	34	35	36	37	38	39	40
B2AR ag	-8.4	-5.8	-0.6	-0.2	-4.3	1.1	16.0	5.4
UCH37 DUB inh	4.4	nt	0.9	3.7	-2.6	-27.6	3.3	-1.8
ALR inh	nt	nt	-5.9	nt	3.4	98.4*	-3.2	-9.1
Ecoli growth	0.734	nt	0.692	0.729	0.735	0.651	nt	0.674
LANA-H2B inh	nt	4.8	7.9	2.2	3.6	6.1	5.6	3.4
FGF22 binding	nt	nt	i	i	i	i	nt	nt
HNF4A DNA FP	-3.1	-1.2	-0.2	0.1	-2.4	4.7	-3.1	0.4

41: Cc1cc(S(=O)(=O)NCCc2ccccc2)ccc1-n1cnnn1
42: O=C(N/C(=C\c1ccccc1)C(=O)N1CCOCC1)c1ccc(Br)o1
43: CCC(C)(C)C1CCc2[nH]nc(C(=O)N/N=C(\C)c3ccco3)c2C1 (centres undefined)
44: CCOC(=O)CSc1nnc2cc(C)c3ccccc3n12
45: COc1ccc(OCC(=O)Nc2cc(NC(=O)COc3ccc(OC)cc3)cc(C(=O)O)c2)cc1
46: O=C(NNc1nc2ccc(Cl)cc2s1)c1cc(-c2cccs2)nc2ccccc12
47: C=CCc1ccc(OCC(O)CN2CCN(Cc3ccc(Cl)cc3)CC2)c(OC)c1 (centres undefined)
48: O=C(CSc1nnc(CNc2cccc(C(F)(F)F)c2)n1Cc1ccco1)NCc1ccco1
entry no.	41	42	43	44	45	46	47	48
B2AR ag	-4.6	-0.6	19.1	2.0	-4.3	4.1	-3.4	-0.9
UCH37 DUB inh	4.1	2.9	nt	0.7	2.8	nt	-1.9	2.2
ALR inh	-2.5	0.4	nt	-0.2	24.4	-1.3	-2.1	0.2
Ecoli growth	0.664	0.628	nt	0.761	0.669	nt	0.627	0.758
LANA-H2B inh	-0.3	-2.1	1.3	5.2	0.2	7.9	1.3	-1.2
FGF22 binding	nt	i	i	nt	i	i	i	nt
HNF4A DNA FP	1.9	-0.6	-1.1	-0.7	-2.1	1.5	0.1	-0.1

49: COc1ccc(-c2cc(=O)oc3cc(OCC(=O)N(C)C)ccc23)cc1
50: CCN(CC)CCNC(=O)c1ccc(NC(=O)c2cc(S(=O)(=O)N3CCCCC3)ccc2C)cc1
51: COC(=O)c1cc(C)sc1NC(=O)CSc1ncccn1
52: CC[n+]1c(C)cc2c(sc3ccccc32)c1C
53: CCOC(=O)CN(C#N)c1nc(C)cc(C)n1
54: CCOC(=O)[C@H]1[C@H]2COc3ccc(Cl)cc3[C@@H]2N2C(=O)[C@@H](CO)NC(=O)[C@@]12C
55: O=C(CC1N=C(Cc2ccccc2)NNC1=O)N/N=C/c1ccc([N+](=O)[O-])cc1 (centres undefined)
56: COc1cc(NS(=O)(=O)c2ccc(NC(=S)NC(=O)c3cccs3)cc2)nc(OC)n1
entry no.	49	50	51	52	53	54	55	56
B2AR ag	-5.9	7.7	-1.3	-14.6	1.2	0.2	-4.2	-4.1
UCH37 DUB inh	-0.1	nt	4.0	-32.3	-3.1	-0.6	nt	-16.7
ALR inh	5.1	nt	-0.3	nt	-0.4	2.1	-2.8	nt
Ecoli growth	0.722	nt	0.711	0.719	0.654	nt	nt	0.691
LANA-H2B inh	-1.5	-0.9	-6.0	nt	2.8	1.5	-2.8	nt
FGF22 binding	i	i	i	i	nt	i	i	nt
HNF4A DNA FP	-0.2	5.3	2.6	-3.7	3.9	0.4	3.5	1.6

57: CCCN(CCC)CCN1C(=O)C2C(C(=O)Nc3ccc(C)cc3)C3C=CC2(O3)C1C(=O)NC1CCCCC1 (centres undefined)
58: CC(C)(C)c1nn(-c2ccccc2)c2[nH]c(=O)c(CNCc3ccco3)cc12
59: Cc1nnc(SCC(=O)NCc2ccc3c(c2)OCO3)[nH]c1=O
60: CCOC(=O)/C(=N\Nc1ccc(OC)cc1)c1csc(Nc2ccccc2)n1
61: CCOC(=O)C1CCCN(C(=O)/C=C/c2ccc(OC)cc2)C1 (centres undefined)
62: Cc1ccc(NC(=O)CSc2ccc(-c3ccccn3)nn2)cc1F
63: O=C(c1cccc(F)c1)N1CCN(C(=O)c2cc3ncc(Br)cn3n2)CC1
64: N#Cc1ccsc1NC(=O)CN1CCOCC1
entry no.	57	58	59	60	61	62	63	64
B2AR ag	7.2	-3.2	11.5	8.7	0.3	-11.0	-7.3	2.8
UCH37 DUB inh	0.9	-4.5	-1.2	nt	4.5	3.8	0.2	-2.4
ALR inh	0.2	-1.0	-5.4	-25.5	-13.8	-9.3	-1.2	1.0
Ecoli growth	0.715	0.71	0.645	nt	0.684	0.689	0.67	0.718
LANA-H2B inh	4.9	-0.2	5.7	2.6	0.7	0.0	1.4	1.9
FGF22 binding	i	nt	nt	i	i	i	nt	i
HNF4A DNA FP	0.9	2.5	0.9	0.1	-2.2	-2.5	-6.4	6.6

A portion of the library (hit frequency here may not be typical).
